Screening data: PubChem BioAssay, several laboratories
HNF4A DNA FP = change in binding of human HNF4A to DNA, primary screen, biochemical, fluorescence polarization, FITC-DNA | Hepatocyte nuclear factor 4-alpha (Homo sapiens), P41235 | 1 h | activity change, % at 10 µM | 360,000 tested, 0.3% active; in the data active means activity change above about 30%, passing the limit was not always enough;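 further: controls were the assay level and a saturating level of protein; the project sought stronger binding though the title names inhibitors; some compounds called inactive have numbers as strong as hits; positive values seem to mean higher polarization but the record does not say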
UCH37 DUB inh = inhibitors of human UCH37 deubiquitinase, primary screen, biochemical, Ub-AMC cleavage, fluorescence. Ubiquitin carboxyl-terminal hydrolase isozyme L5 (Homo sapiens), Q9Y5K5. purified proteasome/UCH37. inhibition, % (no concentration beside the values). 330,000 tested, 0.33% active. AID 588478, 2011;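 active means mean of two replicates above 20%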;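 further: 0% = compound-free wells with enzyme and 100% = wells lacking proteasome; stock transfer was 100 nL into about 20 µL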
Target sequence (Q9Y5K5 whole entry, looked up): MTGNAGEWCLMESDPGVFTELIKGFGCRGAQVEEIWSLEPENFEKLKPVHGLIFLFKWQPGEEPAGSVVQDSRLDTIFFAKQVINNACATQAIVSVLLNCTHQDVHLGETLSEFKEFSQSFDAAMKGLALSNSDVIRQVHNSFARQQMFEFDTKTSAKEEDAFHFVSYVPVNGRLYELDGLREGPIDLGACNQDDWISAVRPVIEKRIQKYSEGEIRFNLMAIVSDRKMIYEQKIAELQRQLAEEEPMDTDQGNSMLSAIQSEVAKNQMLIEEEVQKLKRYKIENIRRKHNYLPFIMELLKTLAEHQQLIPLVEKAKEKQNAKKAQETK
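Test system – human UCH37 enzyme supplied as purified proteasome complex · Incubation – 30 min preincubation with enzyme, 25 min cleavage at room temperature · Detection – AMC fluorescence from Ub-AMC cleavage, excitation 355 nm, emission 460 nm · Benchmarks – no-proteasome wells (full inhibition) and compound-free wells (no inhibition)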
Beta2AR agonist = beta2AR agonists driving receptor internalization, primary screen, cell-based, FAP fluorogen, flow cytometry. response, % (concentration not given with the values). AID 504454, 2011. Am2.2-beta2AR cells; reference of the scale not given here. 340,000 tested, 0.43% active. Beta-2 adrenergic receptor (Homo sapiens), P07550;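 active means response above a set limit, near 3 SD of response in nonfluorescent compounds, cut at about 42% in these data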;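 further: stock transfer was 100 nL into about 11 µL; a reference agonist was the positive control; negative values mostly stem from fluorescent compounds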
Target sequence (P07550 whole entry, looked up): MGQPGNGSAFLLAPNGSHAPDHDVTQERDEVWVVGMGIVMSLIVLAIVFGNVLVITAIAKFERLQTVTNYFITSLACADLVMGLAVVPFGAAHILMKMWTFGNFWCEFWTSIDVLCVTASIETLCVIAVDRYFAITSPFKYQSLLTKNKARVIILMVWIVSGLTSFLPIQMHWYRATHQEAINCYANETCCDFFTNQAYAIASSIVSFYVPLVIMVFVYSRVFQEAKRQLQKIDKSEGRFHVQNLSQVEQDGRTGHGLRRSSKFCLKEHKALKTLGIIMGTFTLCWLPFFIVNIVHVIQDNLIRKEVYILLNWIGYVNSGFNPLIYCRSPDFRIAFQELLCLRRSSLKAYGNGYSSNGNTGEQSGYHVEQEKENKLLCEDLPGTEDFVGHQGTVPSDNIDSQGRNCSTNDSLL
rRNA inh HTS = reduced GFP signal of wild-type E. coli, primary screen, bacterial rRNA inhibitor project, GFP/RFP fluorescence, OD600, single point; AID 720706, 2013; E. coli WT GFP vs humanized-ribosome RFP mutants, 24 h; stronger effect = lower value; DMSO median 0, no signal -100; 350,000 tested, 1.6% active; GFP signal change (wild-type ribosome), % (no concentration beside the values);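 active means significant combined selectivity score with lowered wild-type GFP, culture density cut under 30%, mutant RFP and density less affected; inactive means any of these conditions unmet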; further: one replicate is shown; some compounds called inactive have numbers as strong as hits
ALR H2O2 inh = inhibitors of human ALR sulfhydryl oxidase, primary screen, biochemical, H2O2 detection, HRP-luminol luminescence, single point | inhibition, % (no concentration beside the values) | 290,000 tested, 3.8% active | FAD-linked sulfhydryl oxidase ALR (Homo sapiens), P55789 | purified ALR, DTT oxidation;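 active means mean and each replicate at 75% or more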;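 further: stock transfer was 7.5 nL into about 7.5 µL; 0% = neutral wells and 100% = wells with inactivated enzyme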
Target sequence (P55789 whole entry, looked up): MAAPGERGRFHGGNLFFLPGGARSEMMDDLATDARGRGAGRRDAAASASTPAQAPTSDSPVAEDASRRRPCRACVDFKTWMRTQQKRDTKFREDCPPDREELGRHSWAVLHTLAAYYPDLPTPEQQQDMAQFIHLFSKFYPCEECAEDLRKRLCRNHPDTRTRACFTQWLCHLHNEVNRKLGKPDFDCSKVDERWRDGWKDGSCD
E coli growth = E. coli growth inhibition, primary screen, OD600 | Escherichia coli growth, 23 h; stronger effect = lower value | OD600 absorbance (test concentration not listed) | 330,000 tested, 0.21% active | AID 1053175, 2014;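 active means OD600 absorbance below the run mean of sample wells minus 3.6 SD, in any replicate, cut at about 0.56 in these data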;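 further: stock transfer was 300 nL into about 60 µL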
FGF22 binding = binders of human FGF22 protein, primary screen, FGF22 synaptogenesis inhibitor project, biophysical, thermal shift, single point. recombinant FGF22 thermal shift, SYPRO orange fluorescence; percent of sucrose octasulfate shift, DMSO zero. calls only at 9.99 µM. 340,000 tested, 1.5% active. Fibroblast growth factor 22 (Homo sapiens), Q9HCT0;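 active means melting point raised past a set limit in the mean and every replicate; three in four hits are not shown here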
rRNA inh HTS OD600 = also measured in rRNA inh HTS; calls as there; OD600 change, %; measured here: OD600 growth;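 optical density of the mix in the first replicate; 0 = DMSO median and -100 = no signal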
rRNA inh HTS RFP = second read-out of rRNA inh HTS, no call of its own (marks repeat the call); RFP signal change, %; measured here: RFP humanized mutant strains;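 first replicate; 0 = DMSO median and -100 = no signal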
* = called active by the depositor; i = inactive; · = not tested or not shown. An excerpt (hit frequency here may not be typical).

Sequence of screens: HNF4A DNA FP	UCH37 DUB inh	Beta2AR agonist	rRNA inh HTS	rRNA inh HTS OD600	rRNA inh HTS RFP	ALR H2O2 inh	E coli growth	FGF22 binding
COc1ccc(-c2nn(-c3ccccc3)cc2/C=N/Nc2ccc(S(N)(=O)=O)cc2[N+](=O)[O-])cc1OC
    14	·	-16	11	3	-1.0	-5	·	i
CCCc1nnc(NC(=O)CCS(=O)(=O)Cc2ccccc2)s1
    4.2	-0.3	6	9	10	5.2	-2	0.64	i
CC(=O)c1cnc2cc(-c3ccccc3)nn2c1C
    3.5	-124	1	·	·	·	-17	0.72	·
COC(=O)c1ccc2nc(-c3ccc(F)cc3)c(Cc3ccc(OC)cc3C)n2c1
    13	·	·	-1	-19	-2.3	·	·	i
COc1ccc(C(c2c(C)n(C)n(-c3ccccc3)c2=O)c2c(C)n(C)n(-c3ccccc3)c2=O)cc1
    -1.0	2.3	-22	5	7	-0.5	·	0.62	i
CO/N=C/c1c(-c2ccc(Cl)cc2)nc2cc(C)ccn12
    -1.7	·	-6	0	-7	1.1	3	·	i
CC(=O)OC1CSC2c3ccccc3C(=O)N2Cc2sccc21 (stereo not drawn)
    -2.0	-1.1	6	-8	-12	-3.7	-6	0.67	i
CCc1ccc(C(=O)OCC(=O)NCC(F)(F)F)cc1
    -0.4	3.4	4	2	-5	0.1	·	0.66	i
COCc1nnc(NC(=O)CCc2ccc(OC)cc2)s1
    3.2	2.9	-1	10	12	2.3	2	0.63	i
CC(C)(C)C(=O)Nc1c2c(nn1-c1cccc(Cl)c1)CS(=O)(=O)C2
    -1.5	4.4	3	18	24	1.9	-2	0.66	i
Cc1nn(-c2ccccc2)c(N)c1C(O)(C(F)(F)F)C(F)(F)F
    -0.9	1.1	11	·	·	·	-2	0.7	·
CN(C)CCN[C@H]1CCC2C3CC=C4C[C@@H](O)CC[C@]4(C)C3CC[C@@]21C (stereo partly drawn)
    -2.8	7.1	8	10	-1	-1.5	2	0.68	i
CCc1cc(=O)oc2cc(C)cc(OC(C)C(=O)NC3CC(C)(C)NC(C)(C)C3)c12 (stereo not drawn)
    -0.8	-86	2	5	11	-0.6	-19	0.7	i
COC(=O)C1NN=C(C(=O)c2ccc(Br)cc2)C1c1cccc(Br)c1 (stereo not drawn)
    -0.3	3.3	8	·	·	·	-5	0.67	·
CC(Oc1cc2oc(=O)c3c(c2cc1Cl)CCCC3)C(=O)NCc1cccnc1 (stereo not drawn)
    -4.4	-17	-24	-9	-7	-1.4	-39	0.7	i
COc1ccccc1NC(=O)CCn1c(=O)c2cccn2c2ccccc21
    2.9	6.3	2	-7	-5	3.0	10	0.7	i
CCOc1ccc(C2/C(=C(/O)c3ccc(F)cc3)C(=O)C(=O)N2CCCN(C)C)cc1 (stereo not drawn)
    4.0	35*	-8	·	·	·	-5	0.78	·
Cc1ccc(C23CC4CC(CC(NC(=O)N5CCN(C)CC5)(C4)C2)C3)cc1
    0.6	1.5	28	·	·	·	-1	0.7	·
Cc1cccc(C)c1NC(=O)C1c2ccccc2OCC(=O)N1Cc1ccc2c(c1)OCO2 (stereo not drawn)
    4.2	·	·	-22*	-16*	3.6*	·	·	i
Cc1n[nH]c(C)c1S(=O)(=O)N1CCCC(C(=O)NCc2ccccc2Cl)C1 (stereo not drawn)
    1.2	3.2	-10	-1	5	-5.5	0	0.68	i
CC(=O)N(CCC(Cc1ccccc1)c1ccc2c(c1)OCO2)Cc1ccc(Cl)cc1 (stereo not drawn)
    0.3	-1.6	0	·	·	·	-2	0.71	·
CC(=O)Oc1ccc2c(=O)c(/C=N/c3cc(=O)[nH]c(=S)[nH]3)coc2c1
    -0.4	·	3	18	6	3.0	55	·	i
COc1cccc(C(=O)Nc2cc3c4c(c2)CC(=O)N4CCC3)c1
    -0.9	5.6	5	1	-1	-0.2	-5	0.67	i
O=C(NCC(=O)N1CCN(c2ccccn2)CC1)c1ccc(Br)o1
    -2.7	-4.7	-6	10	2	3.6	0	0.67	i
Cc1ccc(OCCN2CCN(c3ncnc4sc(C)c(C)c34)CC2)cc1
    -1.2	1.8	-13	·	·	·	-4	0.66	·
Cc1cccc(C(=O)NCC(=O)N2CCN(c3ccc(Cl)cc3)CC2)c1
    -3.9	0.9	-8	3	4	-1.5	5	0.69	i
O=C(OCC#CCSc1nnc(-c2cccc3ccccc23)o1)c1ccc(F)cc1
    2.8	-2.4	5	-1	7	-2.8	3	0.74	i
COc1ccccc1C(=O)Nc1ccc2c(c1)CN(C(=O)CSC)CC2
    1.6	1.6	-10	-20	-22	0.5	-8	0.68	i
Cc1c(NS(=O)(=O)c2ccc([N+](=O)[O-])cc2)c(=O)n(-c2ccccc2)n1C
    -1.0	3.4	5	1	5	-1.6	-21	0.63	i
Cc1cccc(N(CC(=O)NC2CC2)S(=O)(=O)c2ccc(Cl)cc2)c1
    2.1	4.1	-9	5	9	-0.2	-12	0.72	i
CCOc1cc(OCC)cc(C(=O)NC(=S)Nc2cccc(C(F)(F)F)c2)c1
    -4.0	4.5	-5	·	·	·	2	0.71	·
c1cc2c(cc1Oc1nc(N3CCOCC3)nc(N3CCOCC3)n1)OCO2
    0.4	4.7	10	·	·	·	·	0.75	·
CCSC1=NCCN1S(=O)(=O)c1ccc(F)cc1
    4.5	6.5	-10	8	6	-1.1	-3	0.69	i
O=C(Nc1ccc(S(=O)(=O)N2CCOCC2)cc1)c1ccc(Cl)cc1Cl
    1.6	0.5	3	-6	-23	4.4	-12	0.64	·
CSc1ncc(CN2CCc3c([nH]c4ccccc34)C2c2cccc(C)n2)cn1 (stereo not drawn)
    -1.8	3.8	-5	-2	-7	5.3	·	0.7	i
CCCc1nnc(SCC(=O)N2CCOCC2)n1Cc1ccco1
    -3.5	0.4	-10	·	·	·	-2	0.71	·
CC(=O)Nc1nonc1-n1nnc(C(=O)NCc2ccccc2)c1C
    -1.0	2.7	12	·	·	·	-2	0.69	·
CN(CC(=O)Nc1c(Cl)cccc1Cl)C(=O)c1ccc(-n2cncn2)c([N+](=O)[O-])c1
    1.7	2.9	3	5	13	-1.0	-13	0.69	i
COc1ccc(N2CC(C(=O)N[C@H](C(=O)NC3CCCC3)C(C)C)CC2=O)cc1 (stereo partly drawn)
    5.8	3.2	-3	12	21	2.2	-3	0.68	i
CON(C)S(=O)(=O)c1ccc2c(c1)N(Cc1ccc(C)cc1)C(=O)C1CCCN21 (stereo not drawn)
    9.1	-14	1	-14	-18	16	-22	0.66	i
Cc1ccc(S(=O)(=O)CCC(=O)OCC(=O)NCc2ccccc2)cc1
    -0.3	4.8	-2	15	7	1.8	-1	0.66	i
Cc1nnc(Cc2ccccc2)c2n[nH]c(C)c12
    -0.9	·	·	8	-18	39	·	·	i
COc1cc(-c2cc(C(=O)Nc3cccc(S(=O)(=O)N(C)C)c3)c3ccccc3n2)cc(OC)c1OC
    -2.1	-109	3	0	5	0.5	-3	0.68	i
O=C(c1ccco1)N1CCN(C(=O)c2ccc(CS(=O)c3ccc(Br)cc3)o2)CC1 (stereo not drawn)
    -2.8	·	·	-7	-9	-4.0	·	·	i
O=S(=O)(Nc1ccc(Cl)c(C(F)(F)F)c1)c1cnc[nH]1
    -5.8	1.2	5	·	·	·	·	0.66	·
O=C(OC1CCOC1=O)c1ccc2ccccc2n1 (stereo not drawn)
    -2.0	4.5	5	·	·	·	-3	0.72	·
Cc1ccc(-n2nccc2-c2nn(-c3cccc(C(F)(F)F)c3)c(=O)n(C)c2=O)cc1
    1.3	-6.6	0	-3	3	-2.3	-4	0.68	i
O=S1(=O)CCN(Cc2cccc(Cl)c2)CC1
    3.7	2.9	1	·	·	·	·	0.76	·
O=[N+]([O-])C1=CC=C2C(=NC3(CCCCC3)N2O)C1=NCCc1ccccc1
    -0.1	6.1	-4	7	12	-1.3	·	0.72	i
Cc1nn(CC(=O)NCc2ccc(C(=O)O)cc2)c(C)c1[N+](=O)[O-]
    -0.8	4.9	1	7	9	-2.5	-5	0.69	i
O=C(O)CSc1nnc(CNc2cccc(C(F)(F)F)c2)n1Cc1ccco1
    0.7	-1.2	6	·	·	·	21	0.7	·
COc1ccc(CNC(=O)c2ccc(Br)cc2)cc1
    ·	-1.0	·	5	12	-6.6	-2	0.72	i
COC(=O)c1ccc(C(=O)OC)c(NC(=S)N2CCCC2)c1
    -0.4	-2.6	14	6	1	-0.5	3	0.69	i
O=C(O)C1OCC2(CO1)COC(C(=O)O)OC2 (stereo not drawn)
    -0.1	2.5	4	·	·	·	·	0.67	i
c1ccc(Nc2nc(Nc3ccccc3)nc(N3CCNCC3)n2)cc1
    1.6	4.0	10	-35	-36	-2.1	-17	0.66	i
CCC1C(=O)N=C(SCC(=O)Nc2ccc(C(=O)OC)cc2)NC1=O (stereo not drawn)
    0.4	2.6	-4	8	8	-0.9	99*	0.66	·
CC(C)C[C@@H](CSc1ccc(Br)cc1)N1CCN(CC(C)C)CCC1=O
    3.8	-0.9	-3	-40	-76	-6.6	·	·	i
Cc1ccc(S(=O)(=O)Cc2c(C)noc2C)cc1
    0.6	4.1	0	9	13	-3.7	-11	0.73	i
COc1ccc(/C=C2\SC(=S)N(CCCC(=O)Nc3ccc(C(=O)O)cc3)C2=O)cc1OC
    21	8.6	1	-3	-7	2.9	15	0.65	i
Cc1ccnc(NS(=O)(=O)c2ccc(NS(=O)(=O)c3ccc(Br)cc3)cc2)n1
    2.0	4.4	4	-1	-4	-4.6	-23	0.71	i

Later entries.
Sequence of screens: HNF4A DNA FP	UCH37 DUB inh	Beta2AR agonist	rRNA inh HTS	rRNA inh HTS OD600	rRNA inh HTS RFP	ALR H2O2 inh	E coli growth	FGF22 binding
C/C(=N\NC(=O)c1cccc2ccccc12)c1cccnc1
    -37	·	2	-1	1	-1.2	·	·	i
O=C(CN1CCN(Cc2ccc3c(c2)OCO3)CC1)Nc1ccc(F)cc1
    -2.2	1.0	3	·	·	·	-4	0.72	·
CCSc1ncc(Cl)c(C(=O)N(Cc2ccc(N(C)C)cc2)C2CCS(=O)(=O)C2)n1 (stereo not drawn)
    -1.7	·	-4	·	·	·	·	0.71	·
O=C(c1ccccc1)c1ccc(CN2C(=O)c3ccccc3C2=O)o1
    -4.2	2.9	-17	4	-2	-1.3	-4	0.67	i
Cc1cc(Cl)ccc1C(O)c1ncc(-c2cccc(C(F)(F)F)c2)[nH]1 (stereo not drawn)
    -0.8	·	·	-63	-79	-18	·	·	i

Full records as entered above:
C/C(=N\NC(=O)c1cccc2ccccc12)c1cccnc1 across the screens: HNF4A DNA FP = -37; UCH37 DUB inh = ·; Beta2AR agonist = 2; rRNA inh HTS = -1; rRNA inh HTS OD600 = 1; rRNA inh HTS RFP = -1.2; ALR H2O2 inh = ·; E coli growth = ·; FGF22 binding = i
O=C(c1ccccc1)c1ccc(CN2C(=O)c3ccccc3C2=O)o1 across the screens: HNF4A DNA FP = -4.2; UCH37 DUB inh = 2.9; Beta2AR agonist = -17; rRNA inh HTS = 4; rRNA inh HTS OD600 = -2; rRNA inh HTS RFP = -1.3; ALR H2O2 inh = -4; E coli growth = 0.67; FGF22 binding = i
